Screening results deposited in PubChem BioAssay by ICCB-Longwood Screening Facility, Harvard Medical School.
AID504770: growth inhibitors of E. coli YBA685 in a screen for V. cholerae RctB (chromosome II replication) inhibitors. 130,000 compounds, 0.27% hits. z-score (concentration not given with the values). E. coli YBA685 rctB-dependent plasmid, OD600 growth, 3 h; hits give low values. AID 504770;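 active = z-score under -2 on both plates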;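 note: wells of about 30 µL received 100 nL stock; score is relative to mean and SD of the test wells; the first replicate is given; strong numbers were not always called active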
Ba CapD inh: blocks the Bacillus anthracis CapD enzyme | z-score (test concentration not listed) | 140,000 compounds, 0.23% hits | purified CapD enzyme, fluorescence intensity read-out; hits give low values; some hits fall short of the stated cut;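 active = z-score under -4 in either of two replicates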;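 note: stock transfer was 100 nL into about 40 µL; score is relative to mean and spread of the plate; one replicate is shown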
* = called active by the depositor; . = not tested or not shown; & = joins results of further samples.

molecule	AID504770	Ba CapD inh
CCOC(=O)C1=C(C)NC2=C(C(=O)c3ccccc32)C1c1ccccc1OCC(=O)O (stereo not given)	.	-0.59
CCN1c2cccc3cccc(c23)S1(=O)=O	-0.8	9.88
Cc1cc(C(=O)O)c2cc(Br)ccc2n1	-0.45	0.245
COc1ccc(-n2nc(C(=O)N3CCN(c4ccccn4)CC3)c3ccccc3c2=O)c(OC)c1	.	-0.065
Cc1cccc(-c2nsc(SCC(=O)OCc3ccccc3)n2)c1	0.05	1.54
Cn1c(=O)c(=O)n(C)c2cc(S(=O)(=O)N3CC(=O)N(CCc4ccccc4)C(=O)C3)ccc21	0.4	1.18
Cc1cccc(NC(=O)c2c(NC(=O)c3cccnc3)sc3c2CCCCC3)c1	.	-1.72
CCC(=O)Nc1nc(-c2ccc(C)cc2C)cs1	2.05	-1.48
CCOC(=O)C1CCN(C(=O)c2cnn(-c3ccc(OC)cc3)c2C)CC1	-0.15	0.325
CCN(CC)C(=O)CSc1nnc(-c2ccco2)n1CC1CCCO1 (stereo not given)	0.45	.
Cc1c(C(=O)Nc2ccc(F)cc2F)sc2ncnc(N3CCC(C)CC3)c12	-0.7	-0.085
CC(=O)N(CCCN1CCOCC1)Cc1ccncc1	-0.05	.
CCn1c2ccccc2c2cc(CN3CCN(C(=O)C4CC4C(=O)O)CC3)ccc21 (stereo not given)	.	20.4
CCOC(=O)C(C)Sc1cc(C(F)(F)F)nc(-c2ccccn2)n1 (stereo not given)	.	-0.14
C=C1SC(Nc2ccc(C(=O)OCC)cc2)=NC1(CC)CC	.	-0.675
Cc1nn(-c2ccccc2)c(C)c1/C=N/n1c(=S)[nH]nc(C)c1=O	-0.1	-1.14
O=C1CSC(c2ccccc2)N1C1CC1 (stereo not given)	-1.8	.
Cc1cc(C)c(S(=O)(=O)Nc2cccnc2)c(C)c1	0.95	0.695
COc1ccc(-c2csc3ncnc(NCCSCc4ccco4)c23)cc1	-0.3	.
COCc1cc(=O)n2[nH]c(-c3sccc3-n3c(C)ccc3C)cc2n1	.	-0.695
CCc1ccc(CNC(=S)Nc2ccc3nc(N4CCCC4)cc(C)c3c2)cc1	-0.6	16.9
O=S1(=O)CCN2N=C(C3CC3)SC2=N1	-0.75	.
CCc1c(C)nn2c1n1nc(C)c(CC)c1n1nc(C)c(CC)c21	0.35	-0.76
Cc1cc(C(=O)Cn2cnc3ccc(Cl)cc3c2=O)c(C)n1CC1CCCO1 (stereo not given)	2	.
O=C(O)c1ccc(CSc2nc3ccccc3[nH]2)cc1	-0.1	.
O=C(c1cccnc1)N1N=C(C(F)(F)F)CC1(O)c1ccncc1 (stereo not given)	-0.5	-0.105
Cc1ccccc1/C=N/N=C1/NC(=O)CCS1	2.1	-2.5
O=C(Nc1ccccc1C(=O)NC1CCCCNC1=O)c1cccc(C(F)(F)F)c1 (stereo not given)	-0.1	0.77
Cc1cc(S(=O)(=O)Nc2ccsc2C(N)=O)c(Cl)cc1Cl	-0.55	-0.945
CCC1(C)NC(=S)N(c2ccccc2)N1 (stereo not given)	-0.55	8.18
COc1ccc(N)cc1C#N	-0.7	19.1
Cc1ccc(NC(=O)C2=C(O)CCn3c2nc2ccccc23)cc1	-0.1	-0.17
O=C(NCCCN1CCCC1=O)c1ccc(NCc2ccc(F)cc2)c(S(=O)(=O)Nc2cccc(C(F)(F)F)c2)c1	.	1.21
O=C(CSc1nncn2c1cc1occc12)NCCc1ccccc1	-0.6	-0.86
CC(=O)n1nc(-c2ccccc2)nc1N	-0.7	-0.71
Cc1ccc2c(c1)c1c(n2C)C(O)CCC1 (stereo not given)	-0.65	13.5
O=C(COC(=O)/C=C/c1ccco1)Nc1ccccc1C(F)(F)F	0.6	-0.14
Cc1cccc(N2CC(c3nc4ccccc4[nH]3)CC2=O)c1 (stereo not given)	-0.85	0.025
Fc1cc(F)c2c(c1)sc1nnc(-c3ccccc3)n12	0.65	0.595
Cc1[nH]n(-c2ccccc2)c(=O)c1C(=O)c1cccc(F)c1	.	-0.01
COc1cc(OC)c(/C=N/NC(=O)c2ccc3nonc3c2)c(OC)c1	.	-0.545
Cc1ccc(NC(=S)SCCC(N)=O)cc1	-0.95	0.51
O/N=C/Cc1[nH]c2ccccc2c1-c1ccccc1	-0.7	-0.195
O=C(NN1C(=O)C2C3C=CC(C3)C2C1=O)c1ccccc1CCc1ccccc1 (stereo not given)	.	0.53
CC(C)Cc1cc(C(=O)NCCCN2CCOCC2)no1	0.15	0.1
COc1cc(OC)cc(N2CCN(C(=O)OCC3CCCN(Cc4ccc5ccccc5c4)C3)CC2)c1 (stereo not given)	.	-0.245
CC(C)CCSc1nnc(N)s1	-0.35	0.185
O=C(NNC(=O)c1cc(-c2ccccc2)nc2ccccc12)OCc1ccc(C#Cc2ccccc2)s1	.	2.42
CCc1cc(=O)oc2c(C)c(OCC(=O)Nc3ccc4c(c3)OCO4)ccc12	-0.7	.
CC(N=c1ccccn1C(=O)Nc1ccc(Cl)c(Cl)c1)c1ccco1 (stereo not given)	-0.5	.
CCOC(=O)N1CCN(C(=O)CN(C)S(=O)(=O)c2cc(Cl)ccc2Cl)CC1	-0.75	.
O=C(NC(O)C(=O)c1cccs1)c1ccncc1 (stereo not given)	1.65	-0.275
N#C/C(=C\c1cc(Br)cs1)C(=O)Nc1ccc(F)c(Cl)c1	.	-0.615
O=C1c2cccc3cccc(c23)C(=O)N1CCCc1nc2sc3c(c2c(=O)[nH]1)CCCC3	.	0.48
CS(=O)(=O)c1ccc(-n2cc(-c3nc4ccccc4o3)cn2)cc1	.	7.69
COc1cc(C(=O)NCc2nnc(SCC(=O)NC3CCCCC3)o2)cc(OC)c1OC	-0.85	-0.21
O=C(CNCCO)N1CCN(S(=O)(=O)c2ccc3ccccc3c2)CC1	-0.15	.
CC1CCN(S(=O)(=O)c2ccc3c4c(cccc24)C(=O)N3)CC1	-0.25&0.05	1.04&5.31
COc1ccc(C(=O)CSc2nc3ccc(Cl)cc3[nH]2)cc1OC	.	-0.81
CC1c2ccsc2CCN1C(=S)NC(=O)c1cccs1 (stereo not given)	0.3	0.09

(listing goes on)
The line under a structure holds: AID504770	Ba CapD inh
COc1ccc(NC2CS(=O)(=O)CC2OC(=O)c2ccc(F)cc2)cc1 (stereo not given)
→ -0.15	0.065
Cc1ccc(OCc2ccc(C(=O)N(C)C3CCCCC3)o2)cc1C
→ -0.6	-0.05
CCc1cc2c(SCC(=O)Nc3ccc(Br)cc3)ncnc2s1
→ .	-0.455
OC12CCCCC1C(c1ccc(F)cc1)NCC2 (stereo not given)
→ 0.4	.
COc1cccc(OC)c1CN1CCC(N(C)C(=O)CCC(=O)O)CC1
→ .	-0.125
Cc1nc2scc(-c3ccccc3)c2c(=O)o1
→ .	-0.175
CC(C)(C)c1cc(C(=O)N2CCN(c3ccc(C(F)(F)F)cn3)CC2)n(Cc2ccc(F)cc2)n1
→ 1.95	2.3
Cc1ccc(-c2nn(-c3ccccc3)cc2C(=O)Nc2ccc3c(c2)OCO3)o1
→ -0.1	.
Cc1nn(-c2ccccc2)c(C)c1/C=N/NC(=O)c1cccc([N+](=O)[O-])c1
→ .	-0.815
O=C1Nc2ccccc2/C1=N/n1c(-c2ccc(Cl)cc2)n[nH]c1=S
→ -1.2	.

The final 2 entries of the section above come first, to join the parts.
The line under a structure holds: AID504770	Ba CapD inh
Cc1nn(-c2ccccc2)c(C)c1/C=N/NC(=O)c1cccc([N+](=O)[O-])c1
→ .	-0.815
O=C1Nc2ccccc2/C1=N/n1c(-c2ccc(Cl)cc2)n[nH]c1=S
→ -1.2	.
Cc1ccc(N=C2NC(=O)/C(=C\c3ccc(-c4ccc(C(=O)O)cc4)o3)S2)cc1
→ .	4.42
Cc1ccccc1C(=O)NCCC(C)C
→ -0.7	0.2
COc1ccccc1CNc1ccccc1F
→ -0.35	.
COCC(=O)NCCc1nc2ccccc2[nH]1
→ 0.9	-0.52
CC1(C)O[C@@H]2C[C@H]3[C@@H]4CCC5=CC(=O)CC[C@]5(C)[C@@]4(F)[C@@H](O)C[C@]3(C)[C@]2(C(=O)CCl)O1
→ .	0.01
CCCCNC(=O)c1ccc2c(c1)NC(=O)C(C)N2 (stereo not given)
→ -0.5	16.5
COc1ccccc1C1NC(=S)NC(C)=C1C(=O)Nc1ccc(C)cc1C (stereo not given)
→ .	-0.41
NC1=NC(=Nc2ccc(S(N)(=O)=O)cc2)c2ccccc21
→ 3.1	.
COc1ccc(CC(C(=O)O)c2ccccc2)cc1 (stereo not given)
→ 0.55	.
O=c1[nH]cnc2c1[nH]c1ccccc12
→ 0.25	.
CCc1ccc(S(=O)(=O)Nc2ccc(N3CCN(C)CC3)cc2)cc1
→ -0.5	0.24
CC1=C(C)CC(C(=O)Nc2ccc3c(c2)oc2ccccc23)C(C(=O)O)C1 (stereo not given)
→ 0.1	6.93
COc1ccc2ccc(OC)c(/C=C3/NC(=O)NC3=O)c2c1
→ -0.65	0.99
O=C(/C=C/c1cccs1)NC1CCCC1
→ -0.6	.
COc1ccc(-c2cn3nc(COc4cc(C)ccc4C(C)C)n4c3c2CCCC4)c(F)c1
→ .	0
CCOc1ccccc1-c1noc(CCCC(=O)Nc2cc(C(F)(F)F)ccc2Cl)n1
→ 0.55	-0.15
Cc1cc(C)cc(OC(=O)c2cccnc2)c1
→ 1.2	-0.2
COC(=O)C1=C(N)OC2=C(C(=O)CC(c3ccccc3)C2)C1c1cccc([N+](=O)[O-])c1 (stereo not given)
→ .	-0.705
COc1ccc(NC(=O)c2cc3ccc(O)cc3oc2=Nc2ccc(C(=O)O)cc2)cc1OC
→ .	-2.63
CCCCC(CC)C1OCC(C)O1 (stereo not given)
→ 0.8	-0.195
O=C(c1ccc2c(=O)n(Cc3ccccc3)c(SCc3nc4ccccc4[nH]3)nc2c1)N1CCOCC1
→ .	0.125
COC(=O)/C(=C(/O)CSc1nnc(C)n1C1CCCCC1)c1nc2ccccc2[nH]1
→ -1.3	.
O=C(O)c1ccc(-c2n[nH]c(=O)c3ccccc23)cc1
→ 0.4	-0.075
CC1CCN(Cc2nc(N)nc(Nc3ccc(Cl)cc3)n2)CC1
→ -0.05	.
COc1cccc(-c2noc(CCC(=O)N(C)C)n2)c1
→ -0.6	-1.01
C=CCn1c(CNS(=O)(=O)c2ccc(Br)cc2)n[nH]c1=S
→ .	0.12
CCOC(=O)c1cnc(COc2ccc(OC)cc2)[nH]c1=O
→ 0.05	0.915
CNCCC(O)c1ccc(F)cc1 (stereo not given)
→ .	-1.15
Cc1ccc(C(=O)CNC(=O)C2Cc3ccccc3C(=O)O2)cc1 (stereo not given)
→ -0.95	17.1
CCC1C(=O)N=C(SCC(=O)Nc2ncccn2)NC1=O (stereo not given)
→ -0.2	0.41
CSc1cccc(NC(=O)c2sc3nc(C)cc(C)c3c2N)c1
→ .	66.6
Cc1cccc(NC(=O)c2c(NC(=O)c3ccccc3Cl)sc3c2CCCCC3)c1
→ .	2.39
CCOC(=O)c1cc2c(oc1=O)c(I)cc1oc3c(c12)CCCC3
→ -0.45	-0.68
CC(O)CNc1nc2ccccc2n1CC(=O)N(Cc1ccccc1)C(C)C (stereo not given)
→ -0.3	.
Cc1ccc(S(=O)(=O)Nc2cc(Br)c3oc4c(c3c2)C(=O)CCC4)cc1
→ .	-0.065
COc1ccc(-c2noc(CC(=O)NCCC(C)C)n2)cc1
→ -0.35	0.505
C/C(=N\NC(=O)c1cc(-c2ccccc2Cl)n[nH]1)c1ccco1
→ -1	-0.055
Nc1nc(-c2cc3cc(Br)ccc3oc2=O)cs1
→ -0.7	-0.655
O=C(O)C1CCN(c2ncnc3c2sc2cccc(F)c23)CC1
→ -0.35	7.52
CN1CCc2cc(CN(CC3CCCO3)C(=O)NC(=O)C(C)(C)C)ccc21 (stereo not given)
→ .	0.285

The last 6 compounds of the part above lead into the next:
The line under a structure holds: AID504770	Ba CapD inh
Cc1ccc(S(=O)(=O)Nc2cc(Br)c3oc4c(c3c2)C(=O)CCC4)cc1
→ .	-0.065
COc1ccc(-c2noc(CC(=O)NCCC(C)C)n2)cc1
→ -0.35	0.505
C/C(=N\NC(=O)c1cc(-c2ccccc2Cl)n[nH]1)c1ccco1
→ -1	-0.055
Nc1nc(-c2cc3cc(Br)ccc3oc2=O)cs1
→ -0.7	-0.655
O=C(O)C1CCN(c2ncnc3c2sc2cccc(F)c23)CC1
→ -0.35	7.52
CN1CCc2cc(CN(CC3CCCO3)C(=O)NC(=O)C(C)(C)C)ccc21 (stereo not given)
→ .	0.285
N#Cc1ccc(COC(=O)C2=NNC(=O)CC2)cc1
→ 0.05	.
C=CCn1c(C)nnc1SCc1cc(=O)oc2cc(NC(C)=O)ccc12
→ -0.35	.
O=C(CS(=O)(=O)c1nc(-c2ccccc2)cn1-c1ccc(Cl)cc1)Nc1ccccc1
→ -0.55	-0.45
CCN=C1SC(CC(=O)Nc2sc(C)c(C)c2C(=O)OC)C(=O)N1CC (stereo not given)
→ .	0.19
CCCNS(=O)(=O)c1cccc(C(=O)NCCc2ccccc2)c1
→ -0.5	.
C=CCSC1=C(C#N)C(c2ccccc2)C(C(=O)OC)C(=O)N1 (stereo not given)
→ 2.55	-0.82
COC(CN=Cc1c(O)[nH]c(=O)[nH]c1=O)OC
→ -0.7	.
O=C(C1CCN(c2ncnc3c2sc2cccc(F)c23)CC1)N1CCCC1
→ 0.1	12.2
O=C(NCCC1=CCCCC1)C1CCCN(C(=O)N2CCOc3ccccc32)C1 (stereo not given)
→ -0.8	-0.175
CCOC(=O)c1c(NC(=O)COc2ccc(Cl)cc2)sc(C(=O)Nc2ccc(OC)cc2)c1C
→ .	-0.165
O=C(Cn1ncc2c(=O)oc3ccccc3c21)N1CCN(Cc2ccccc2)CC1
→ 1.7	-0.24
COc1ccc(NC(=O)CC(=O)CSc2ccccc2)cc1
→ -0.9	-0.02
Cc1ccc(-c2ccc3ccccc3n2)o1
→ -1	60.8
